Screens (PubChem)
HPGD inh: blocks human HPGD enzyme activity. purified HPGD, NADH fluorescence kinetic, PGE2 substrate. Potency, µM, without a hit: at the highest dose activity change, negative = inhibition, most hits filed as inhibitors. actives 4.3% (n = 150,000). AID 894; active = well fitted inhibition curve with a large enough effect (not every such curve was filed as active); inconclusive = small, poorly fitted or top-dose-only effect, or another doubt; inactive = no such curve, though single readings can be large or run the other way;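 also: top concentration of the series not given in the record; plate controls included wells without enzyme; inactives centre near -10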
Target sequence (P15428 whole entry, looked up): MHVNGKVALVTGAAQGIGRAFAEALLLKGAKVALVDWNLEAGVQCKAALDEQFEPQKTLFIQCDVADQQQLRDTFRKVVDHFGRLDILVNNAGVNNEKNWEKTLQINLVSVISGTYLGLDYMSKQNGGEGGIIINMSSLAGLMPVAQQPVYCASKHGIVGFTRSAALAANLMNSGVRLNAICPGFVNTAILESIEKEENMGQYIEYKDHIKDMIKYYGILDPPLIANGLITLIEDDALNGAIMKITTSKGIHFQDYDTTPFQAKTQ
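20 nM HPGD preincubated 15 min at room temperature with compound in 50 mM Tris-HCl pH 8, 0.01% Tween 20. Started with 1 mM NAD+ and 30 uM prostaglandin E2; NADH fluorescence (360/450 nm) read 5 times over 30-s intervals, last minus first.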
* hit, by the source's call; ? = inconclusive; & = joins results of further samples. % is scaled to controls: 0 for no effect and ±100 for the full control effect; potency is read from the fitted curve at half-maximal effect. Some of the compounds tested. The share of hits here may be higher or lower than overall.

SMILES	HPGD inh
O=C(NCc1ccccc1)c1ccc2nccnc2c1	-26.9%
COc1cccc(NC(=S)N2CCN(c3ccccn3)CC2)c1	-12.4%
CCOc1ccccc1-c1ccc(C(=O)O)o1	?
CCCn1c(-c2ccc(F)cc2)nc2c(NCCCN3CCOCC3)nc(C)nc21	?
Cc1ccc(OC(=O)N2CCOCC2)cc1	-9.9%
CCOc1ccccc1C1CC(c2ccc(Br)cc2)Nc2nc(N)nn21 (stereo unspecified)	?
O=C(COC(=O)C1CCC(=O)N1)Nc1ccc(Cl)cc1Cl (stereo unspecified)	-8.8%
Cc1ccc(-c2cc(C(=O)N(C)Cc3cnn(C)c3C)c3cc(Br)ccc3n2)cc1	-18.5%
COc1ccc(CN(C(=O)c2ccco2)c2ccc(Br)cc2)cc1OC	-6.8%
O=C(C1CCCN(CCCc2ccccc2)C1)N1CCCCC1 (stereo unspecified)	-5.2%
CCOC(=O)CSc1nc2cc(C(=O)N3CCCC3)ccc2c(=O)n1Cc1ccccc1	-4.9%
Cc1ccc(CN2C(=O)CCC2C(=O)NC(C)C)cc1 (stereo unspecified)	-10.7%

The last four entries of the part above open the next one.
SMILES	HPGD inh
COc1ccc(CN(C(=O)c2ccco2)c2ccc(Br)cc2)cc1OC	-6.8%
O=C(C1CCCN(CCCc2ccccc2)C1)N1CCCCC1 (stereo unspecified)	-5.2%
CCOC(=O)CSc1nc2cc(C(=O)N3CCCC3)ccc2c(=O)n1Cc1ccccc1	-4.9%
Cc1ccc(CN2C(=O)CCC2C(=O)NC(C)C)cc1 (stereo unspecified)	-10.7%
Cc1ccccc1C(=O)Oc1ccc(Sc2ccc(O)cc2)cc1	-15.0%
CC(=O)Nc1ccc(/C=N/OCC(=O)Nc2ccc(C)cc2)cc1	-17.6%
NCC(O)CC(=O)O (stereo unspecified)	-12.0%
CCOCCCN1CC(C(=O)NCCc2ccc(C)cc2)CC1=O (stereo unspecified)	-3.3%
Cc1ccccc1N/N=C/c1ccc(C#N)cc1	-12.7%
CCOC(=O)CN(C(=O)CNC(=O)c1ccco1)C(C(=O)NC1CCCC1)c1ccccc1OCC (stereo unspecified)	-10.8%
COc1cccc(N2C(=O)CC(Nc3ccc(N4CCOCC4)cc3)C2=O)c1 (stereo unspecified)	-1.6%
O=C(CCn1cnc2ccccc2c1=O)Nc1cccc(Cl)c1	-5.1%
CCOC(=O)c1c(NC(=O)CSc2nnc(-c3c[nH]c4ccccc34)n2CCOC)sc2c1CCCCC2	-16.1%
O=C(Cc1ccccc1F)Nc1ccc(SC(F)F)cc1	-15.1%
Cc1ccc2c(c1)sc1nc(=O)n(-c3ccc(Cl)cc3)c(=O)n12	-0.7%
Cc1cc(Nc2ccc(Cl)cc2)nc(N)n1	-5.9%
COc1ccc(C(C)=O)cc1CSc1nc2ccccc2c(=O)n1-c1ccccc1C	-1.3%
O=C(O)CCCNS(=O)(=O)c1ccc2c(c1)OCCCO2	-0.3%
O=C(NCc1ccc(F)cc1)C1CCN(S(=O)(=O)N2CCCCC2)CC1	-4.2%
CC(C)(C)C(=O)/C=c1\[nH]c(=O)/c(=C\c2ccc(F)cc2)s1	-14.3%
CCOC(=O)C1=C(O)CSC1=Nc1ccc(Cl)cc1	-10.3%
COc1ccc([N+](=O)[O-])cc1NC(=S)Nc1ccccc1	-28.5%
C=C(C)C1CC=C(C(=O)O)CC1 (stereo unspecified)	-15.2%&-3.6%
COC1=C(Nc2ccc(O)cc2)C(=O)c2ccccc2C1=O	28.2µM*
CCc1nn(C)c(-c2n[nH]c(=S)n2N)c1Cl	-13.7%
O=C(CSc1nnc(CNC(=O)c2cccs2)o1)NCc1ccc(F)cc1	-8.5%
c1n[nH]c(SCCCCSc2ncn[nH]2)n1	-8.9%
O=c1cc(-c2ccc3c(c2)OCCO3)oc2ccc(Cl)cc12	?

Not a retest: an excerpt of the list.
SMILES	HPGD inh
CC(C)(C)C(=O)/C=c1\[nH]c(=O)/c(=C\c2ccc(F)cc2)s1	-14.3%
CCOC(=O)C1=C(O)CSC1=Nc1ccc(Cl)cc1	-10.3%

(next part)
SMILES	HPGD inh
C/C(=N/NC(=O)c1ccncc1)c1ccccc1Cl	-4.9%
O=C(Oc1c(Cl)cc(Cl)c2cccnc12)N1CCCCC1	-16.9%
CCCn1c(SCC(=O)NCc2ccccc2)nnc1-c1ccncc1	-13.4%
NC(N)=NCCC[C@H](NC(=O)OCc1ccccc1)C(=O)O	-3.1%
CC(C)CC(C(=O)O)C(C)CC(=O)Nc1ccn(-c2ccccc2)n1 (stereo unspecified)	-6.7%
Cc1ccc(NC(=S)Nc2ccc3nc(-c4ccccn4)c(-c4ccccn4)nc3c2)cc1C	-25.8%
CCN1CCN(CCC(=O)Nc2ccc3c(c2)OCO3)CC1	-5.0%
COc1cc(/C=C(\C#N)C(N)=O)ccc1OS(=O)(=O)c1ccc(C)cc1	28.2µM*
Cc1ccccc1C1CC(c2ccc(F)cc2)Nc2nc(N)nn21 (stereo unspecified)	-9.6%
COc1ccc(/C=N/N2CCOCC2)cc1O	-7.9%
Cc1cccc(C(OC(=O)c2ccco2)C(=O)NCc2ccccc2)n1 (stereo unspecified)	-13.2%
CCCCOc1ccc(/C(N)=N/O)cc1	-5.6%
Cc1ccc(OCC(=O)N(Cc2ccccc2)C(C)(C)C)c([N+](=O)[O-])n1	-7.7%
CC(C)(C)N(Cc1cc2ccccc2[nH]c1=O)C(=O)c1cccnc1	-17.2%
CC1Oc2ccccc2C=C1/C=N/NC(=O)c1ccccc1 (stereo unspecified)	?
CCOC(=O)c1c(C)n(C)c2ccc(OCC(O)CN3C(=O)c4ccccc4S3(=O)=O)cc12 (stereo unspecified)	-15.8%
COc1ccc(-c2coc3cc(O)ccc3c2=O)c(OC)c1	?
CN(C)C(=O)c1nnc(Cc2ccc(Cl)cc2)o1	-7.1%
Cc1noc(NS(=O)(=O)c2ccc(N3C(=O)c4ccccc4C3=O)cc2)c1C	1.4%
COc1ccc2c(=O)ccoc2c1	-21.2%
Cc1nc2nc(-c3ccc(Cl)cc3)nn2c(C)c1Cl	-8.7%
COC(=O)c1c(-c2ccc(F)cc2)noc1N	-2.4%
S=C(Nc1ccc2nsnc2c1)NC1CCCCC1	?
CCOC(=O)C1(N(CC)CC)Sc2cc(C)ccc2NC1=O (stereo unspecified)	-21.8%
COC(=O)C1CCN(c2c([N+](=O)[O-])cc(C(F)(F)F)cc2[N+](=O)[O-])CC1	-7.2%
Cc1ccc(Nc2nc3ccccc3nc2-n2nc(C)cc2C)cc1	-24.1%
Cc1csc(-c2cnn(-c3ccccc3)c2NC(=O)c2ccc(C(F)(F)F)cc2)n1	?
CCCn1c(C)nc2c(NC3CCN(Cc4ccccc4)CC3)nc(C)nc21	-8.3%
Cc1ccc(/C=N/NC(=O)c2cccs2)o1	-17.2%
NCCNC(=O)c1ncsc1-c1cccc(F)c1	-3.2%
O=C(NCc1ccco1)c1cc(-c2ccccn2)nc2ccccc12	-5.2%
COc1ccc(N(C(=O)c2ccco2)S(=O)(=O)c2cccs2)cc1	-14.6%
Cc1ccc(NC(=O)CNS(=O)(=O)c2cccs2)cc1F	-3.8%
Cc1cccc(OCCN2CSC(=S)N(C)C2)c1	-25.6%
C/C(=N\NC(=O)c1ccco1)c1ccc(NC(=O)c2cccs2)cc1	?
C/C(=C\C(=O)c1ccc(Cl)cc1)Nc1ccc(N2CCOCC2)cc1	-8.5%
Cc1[nH]c2ccccc2c1C(=O)CSCC(=O)O	-8.8%
CCCCNC(=O)Nc1ccccc1C(=O)NCCC	-22.7%
Nc1ncnc2c1ncn2CCN1CCOCC1	-18.6%
NC(=O)NCc1ccc(C(=O)OCc2ccncc2)cc1	-10.4%
COCCNC(=O)c1ccc2c(=O)n(Cc3ccco3)c(SCC(=O)NC3CCCC3)nc2c1	-22.9%
CCOC(=O)Cn1c(=O)n(Cc2ccco2)c(=O)c2ccc(C(=O)NCCc3ccccc3)cc21	-11.7%
COc1ncnc2c1oc1nc(CC(C)C)c3c(c12)CC(C)(C)OC3	-9.4%
Cn1c(-c2ccc3nc(N)sc3c2)nc2cc(N)ccc21	?
CCSc1nnc(-c2cccnc2)n1-c1ccc(C)c(Cl)c1	-3.4%
CCn1nnnc1SCC(=O)Nc1nc(C)c(C)s1	-17.1%
C=CCN1C(=O)/C(=N/n2cnnc2)c2ccccc21	-5.6%
O=C(NCc1ccccc1)NC1(C(=O)N2CCN3CCCC3C2)CCCCC1 (stereo unspecified)	-3.3%
CN(C)c1ccc(/C=N/NC(=O)C(=O)/C=C2\NC3(CCCC3)Cc3ccccc32)cc1	-15.5%
Cc1ccc(S(=O)(=O)N2CCOCC2)cc1C(=O)N1CCOCC1	-5.1%
NC1=NC(=O)/C(=C/c2cccs2)S1	-51.8%
CCOC(=O)c1sc2nc3c(SCC(=O)O)cc(C(=O)c4cc(F)ccc4O)cn3c(=O)c2c1C	-25.9%
CCOC(=O)C(C)Oc1cccc2c(=O)n(CC(=O)Nc3cccc(OC)c3)ccc12 (stereo unspecified)	-10.2%
CC(C)C(=O)Nc1ccc2c(c1)nc1n2CCSC1	-6.2%
O=[N+]([O-])c1ccc(COc2ccccc2/C=N/O)cc1	-8.3%
NS(=O)(=O)c1ccc(N/C=C\C(=O)c2cccc3ccccc23)cc1	-13.5%
CCc1ccc(NC(=O)c2cnc3n(c2=O)CCS3)cc1	-10.1%
c1ccc(Nc2nc3ccccc3[nH]2)nc1	31.6µM*
Cn1cccc1Cc1nnc(SCC(=O)Nc2ccc(F)cc2F)n1-c1ccc(F)cc1	-9.7%
Cc1cccc(C(=O)N[C@H](C(=O)Nc2nc(C)cs2)C(C)C)c1	-13.3%

Following part:
SMILES	HPGD inh
C/C(Cn1nc([N+](=O)[O-])cc1C)=N\NC(=O)c1cccc(Br)c1	-9.3%
N/C(CC(=O)NCCOc1ccccc1)=N\O	-19.3%
COc1cccc(-c2cc(C(=O)NCc3ccc(Cl)cc3)no2)c1	-16.3%
C/C(=N\OC(=O)NC(C)C)c1sc(-c2ccccc2)nc1C	-22.4%
CCOc1cc(C(=O)Nc2ccc3c(c2)OCO3)ccc1OCCOc1ccccc1Cl	-11.2%
CN1C(=O)N(C)C2C1N(C)S(=O)(=O)N2C (stereo unspecified)	-12.2%
CCOc1ccc(OCC)c(NC(=O)CCS(=O)(=O)c2ccc(Br)s2)c1	-6.2%
COC1CCC(C(=O)c2ccc3nc4c(cc3c2)CCCO4)CC1 (stereo unspecified)	-13.4%
COc1ccc(-n2nccc2-c2nn(-c3cccc(OC)c3)c(=O)n(C)c2=O)cc1	-19.8%
CCN1C(=O)/C(=C2\Sc3ccccc3N2CC)OC1=S	-21.7%
Cc1ccc(S(=O)(=O)N(C)C)cc1NC(=S)NC(C)CCC(C)C (stereo unspecified)	-2.9%
CCN(CC)CCNC(=O)c1ccc(N2CCCCC2)c(NS(=O)(=O)c2ccc(C)cc2)c1	-8.5%

Molecules from the list above that have a nitro group on carbon (5):
SMILES	HPGD inh
COc1ccc([N+](=O)[O-])cc1NC(=S)Nc1ccccc1	-28.5%
Cc1ccc(OCC(=O)N(Cc2ccccc2)C(C)(C)C)c([N+](=O)[O-])n1	-7.7%
COC(=O)C1CCN(c2c([N+](=O)[O-])cc(C(F)(F)F)cc2[N+](=O)[O-])CC1	-7.2%
O=[N+]([O-])c1ccc(COc2ccccc2/C=N/O)cc1	-8.3%
C/C(Cn1nc([N+](=O)[O-])cc1C)=N\NC(=O)c1cccc(Br)c1	-9.3%

(next part)
SMILES	HPGD inh
CCC(C)(C)c1ccc(Oc2cccc(C(=O)O)c2)cc1	-5.6%
Cc1cc(C)nc(-n2nc(C)c(Oc3ccccc3O)c2C)n1	-18.5%
O=C(CCCSc1nc(-c2ccco2)cc(C(F)(F)F)n1)NCC1CCCO1 (stereo unspecified)	7.94µM*
CCOC(=O)c1ccc(-n2c(C)ccc2C)cc1	?
CCOc1cc(/C=C2\N=C(C)OC2=O)cc(Br)c1OCC(=O)OC	-11.8%
COc1ccc(C(=O)NC(=S)NNC(=O)c2c(-c3ccccc3)noc2C)cc1	-16.5%
Cc1cccc(NC(=O)C2CCCN2S(=O)(=O)c2ccc(F)cc2)c1C (stereo unspecified)	0.2%
CCc1ccc(Nc2ccc(S(=O)(=O)N3CCOCC3)cc2[N+](=O)[O-])cc1	-5.2%
O=C(Nc1ccc(N2CCN(C(=O)c3ccco3)CC2)cc1)c1ccc2c(c1)OCO2	-11.2%
CCN(CCCNC(=O)c1cn(CC)c2ccc(S(=O)(=O)N(C)C)cc2c1=O)c1cccc(C)c1	-24.4%
C=CCOC(=O)N[C@H](c1ccccc1)C(C(C)=O)C(C)=O	-19.8%
COC(=O)[C@@]1(Cc2ccc(F)cc2)[C@H]2c3cc(C(=O)N(C)C)n(Cc4cc(C)n(C)n4)c3C[C@H]2CN1C(=O)c1ccccc1	-11.1%
O=S(=O)(Nn1cnnc1)c1ccccc1Cl	0.9%
COc1ccc(S(=O)(=O)N2CCC(C(=O)NCc3ccccn3)CC2)cc1C	-8.4%
CC1Cc2ccccc2N1C(=O)CO/N=C/c1ccc(OC(F)F)cc1 (stereo unspecified)	-7.2%
O=C(NCCCN1CCN(c2cccc(Cl)c2)CC1)C1(S(=O)(=O)c2ccc(Cl)cc2)CC1	-5.1%
Cc1oc2ccc(O)cc2c1C(=O)c1ccc(Cl)cc1	-27.6%
CC1(C)CC(NC(=O)C23CCC(C)(C(=O)C2)C3(C)C)CC(C)(C)N1 (stereo unspecified)	-3.7%
